# Bioassay records as filed in PubChem BioAssay.
# TRPML1 inh = human mucolipin-1 channel inhibition. TRPML1-inducible cells, Ca2+ dye fluorescence, FDSS; active compounds read low; inhibition of EC80 agonist-evoked calcium signal. Q9GZU1. activity change, negative = inhibition, % (concentration not given with the values). AID 624415. hit rate 0.02% among 390,000; in the data active means activity change below about -50%; inconclusive means about -30% to -50%; inactive means above about -30%;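 also: stimulus is agonist 54-4 at its EC80 concentration; % is scaled to controls: 0 for no effect and ±100 for the full control effect; the text of the record puts the active cut at -80%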
# Target sequence (Q9GZU1 whole entry, looked up): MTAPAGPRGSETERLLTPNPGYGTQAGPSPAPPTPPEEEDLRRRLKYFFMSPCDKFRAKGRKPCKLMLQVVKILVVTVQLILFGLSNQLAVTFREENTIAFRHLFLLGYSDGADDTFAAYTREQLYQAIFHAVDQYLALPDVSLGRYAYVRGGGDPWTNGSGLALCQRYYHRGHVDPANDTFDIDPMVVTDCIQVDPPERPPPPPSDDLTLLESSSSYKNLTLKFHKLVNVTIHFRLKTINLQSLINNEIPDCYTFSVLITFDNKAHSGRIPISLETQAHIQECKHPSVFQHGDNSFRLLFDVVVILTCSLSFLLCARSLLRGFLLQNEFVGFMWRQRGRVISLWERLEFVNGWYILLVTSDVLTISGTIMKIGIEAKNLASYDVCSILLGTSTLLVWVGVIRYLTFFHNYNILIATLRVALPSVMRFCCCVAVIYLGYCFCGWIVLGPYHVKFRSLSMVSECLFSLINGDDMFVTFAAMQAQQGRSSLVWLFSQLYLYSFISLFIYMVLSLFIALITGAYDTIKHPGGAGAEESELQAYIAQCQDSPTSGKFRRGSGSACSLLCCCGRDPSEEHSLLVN
#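 TRPML1-DL cells, Tet-induced overnight (~16 h, 37 °C) at 1,500 cells/well, were loaded with Ca8 no-wash dye plus quencher for 45-90 min at room temperature. Compounds were pinned during FDSS kinetic reading; agonist 54-4 at EC80 (4 uM final) then added.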
# Six1-Eya2 inh = Six1/Eya2 interaction inhibition. hit rate 0.56% among 360,000. activity change, % (no concentration beside the values). AlphaScreen GST-Six1/His-Eya2 binding, biochemical; active compounds read low; control for the full effect not named in the record. AID 651725; in the data active = activity change below about -65%; inconclusive = about -30% to -65%; inactive = above about -30%; also: % is scaled to controls: 0 for no effect and ±100 for the full control effect
#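 Homogeneous AlphaScreen proximity assay pairing GST-Six1 with His-tagged Eya2 (added as 5X mix: 250 nM and 500 nM) in 50 mM Tris pH 8.0, 300 mM NaCl, 1 mM TCEP. Glutathione donor and nickel acceptor beads; 1 h, 37 °C, dark.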
# D2 PAM = human D2 receptor positive allosteric modulation; P14416; DiscoveRx D2 beta-arrestin cells, luminescence, 90 min; 100% = 57 uM dopamine signal; potentiation, % (no concentration beside the values); hit rate 0.23% among 360,000; AID 624464; active = potentiation of 50% or more; inconclusive = 30% to 50%; inactive = 30% or less;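 also: compound concentration not given in the record; tested on top of an EC20 dose of dopamine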
# Target sequence (P14416 whole entry, looked up): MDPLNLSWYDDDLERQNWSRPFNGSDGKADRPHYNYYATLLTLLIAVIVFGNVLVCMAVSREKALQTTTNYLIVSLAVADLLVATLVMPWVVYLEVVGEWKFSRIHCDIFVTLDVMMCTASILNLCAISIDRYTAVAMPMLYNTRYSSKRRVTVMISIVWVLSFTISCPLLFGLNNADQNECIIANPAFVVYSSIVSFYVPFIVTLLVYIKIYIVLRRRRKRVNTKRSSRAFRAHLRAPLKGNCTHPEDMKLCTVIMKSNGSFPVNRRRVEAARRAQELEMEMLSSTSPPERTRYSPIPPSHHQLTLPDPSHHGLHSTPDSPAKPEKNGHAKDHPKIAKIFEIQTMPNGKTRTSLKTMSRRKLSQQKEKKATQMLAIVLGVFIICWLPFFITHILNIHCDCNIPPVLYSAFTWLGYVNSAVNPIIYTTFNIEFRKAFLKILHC
#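 PathHunter D2 cells, attached overnight at 37 deg C, received compound in DMSO plus dopamine at EC20 (50 nM final) for 90 min at 37 deg C. Beta-arrestin recruitment was read as luminescence after 1 h with detection reagent at ambient temperature.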
# TRPML1 ag = activates the human TRPML1 channel; hit rate 0.12% among 410,000; activation, % (test concentration not listed); AID 624414; TRPML1-expressing cells, Ca2+ dye fluorescence, FDSS; host cell line not named in the record; reference of the full effect not given here; in the data active = activation above about 50%; inconclusive = about 30% to 50%; inactive = below about 30%; also: 0% is about no effect; the text of the record puts the active cut at 80%
#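 Calcium fluorescence on an FDSS kinetic reader gave the read-out. Tet-induced TRPML1-DL cells were plated overnight, dye-loaded (Ca8 with quencher, 45-90 min, room temperature, dark), then read 110 s after compound addition, and again 110 s after 4uM final 54-4 (EC80).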
# PINK1 expr mod = modulators of PINK1 expression; hit rate 0.2% among 410,000; AID 624263; PINK1 immunofluorescence, high-content cytometry, 24 h; Potency, µM (doses to about 76.6 µM), for inactives: at the top dose activation (PINK1 increase), hits mostly activators; active = well fitted activation curve with a large enough effect; inconclusive = small, poorly fitted or top-dose-only effect; inactive = flat fitted curve, though single readings scatter; cell line not stated here;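 also: potency is read from the fitted curve at half-maximal effect; % of control where 0% means no effect; nearly all actives have a fitted effect of over 65% in size; a mitochondrial uncoupler was the plate control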
#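 Compound titrations (5 concentrations, 24 h) on a stable cell line; DMSO and CCCP controls. Endpoint: fixed-cell PINK1 immunofluorescence with mitochondrial, cell and nuclear markers, scanned by microplate cytometer.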
# D2 agonist = human D2 receptor agonism in beta-arrestin assay | P14416 | DiscoveRx PathHunter D2 beta-arrestin, luminescence, 90 min; 100% = 57 uM dopamine signal | activation, % (test concentration not listed) | hit rate 0.084% among 360,000; in the data active = activation above about 40%; inconclusive = about 15% to 40%; inactive = below about 15%; also: compound concentration not given in the record; the text of the record calls up to 30% inactive
#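 DiscoveRx PathHunter D2 beta-arrestin cells (2,100/well) attached overnight, then compound-stimulated 90 min at 37 C in HBSS/10 mM HEPES/0.1% Tween-20 buffer; beta-galactosidase complementation read by luminescence after 1 h at ambient temperature. Dopamine 57 uM final (EC100) as control.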
# Active calls of the source: *; ? = inconclusive; . = not tested or not shown; [ ] = dose if it differs, or a comment.
# Start of the data: the first two entries (preview)
entry	Structure	TRPML1 ag	D2 PAM	Six1-Eya2 inh	D2 agonist	TRPML1 inh	PINK1 expr mod
1	Cc1ccc2cc(CCNC(=O)c3cc4ccccc4o3)c(=O)[nH]c2c1C	2.2	-5.6	-14.3	-1.6	31.3	1.2%
2	CCc1ccc(C(=O)O)cc1	0.0	-9.9	4.3	-5.3	6.0	-1.5%

# The listing, from the first entry:
entry	Structure	TRPML1 ag	D2 PAM	Six1-Eya2 inh	D2 agonist	TRPML1 inh	PINK1 expr mod
1	Cc1ccc2cc(CCNC(=O)c3cc4ccccc4o3)c(=O)[nH]c2c1C	2.2	-5.6	-14.3	-1.6	31.3	1.2%
2	CCc1ccc(C(=O)O)cc1	0.0	-9.9	4.3	-5.3	6.0	-1.5%
3	CC/C(=N/O)c1cnnc(SC)n1	1.7	0.6	5.3	-2.0	3.3	3.9%
4	Cc1ccc(-n2c(SCC(=O)NCC3CCCO3)nc3ccccc3c2=O)cc1 (configuration not stated)	-0.5	-4.1	3.7	-1.0	13.0	-0.9%
5	COc1cc(OC)nc(Nc2nc(C(N)Cc3ccc(F)cc3)cs2)n1 (configuration not stated)	1.1	-4.2	-4.7	4.0	.	-1.0%
6	CCOC(=O)c1cc(COc2cc(Cl)cc(Cl)c2)on1	-0.4	1.7	16.6	-4.8	1.4	4.9%
7	O=C(COC(=O)c1cnccn1)c1ccc([N+](=O)[O-])cc1	1.3	-1.4	-5.6	5.1	38.0	-1.0%
8	CN(C)C(=O)N1CCC(C(=O)NCc2ccccc2Cl)CC1	0.0	-9.3	19.3	-0.3	-12.8	2.0%[38.3 µM]
9	CC1(C)CC(=O)C=C(NCCN2CCN(C(=O)Nc3ccccc3)CC2)C1	-0.5	-14.7	1.4	-2.8	-9.5	-2.5%
10	O=C(COC(=O)/C=C/c1ccc2ccccc2n1)NNC(=O)c1ccccc1	-0.8	-11.8	-2.5	0.9	2.3	1.0%
11	CN(C)/C=C/C(=O)c1ccccc1OCc1cnc(Cl)s1	0.0	-5.0	-29.1	-1.2	59.0	0.0%
12	CC(C)[C@H](NC(=O)c1ccc(Cl)cc1Cl)C(=O)NNc1cccc(C(=O)O)c1	-0.4	-9.1	0.0	-0.1	12.1	-4.8%
13	CC(C)NC(=O)C1CCN(C(=O)N2CCOc3ccc(Cl)cc32)CC1	0.2	.	.	.	-18.2	-2.4%
14	CCOc1ccccc1C(=O)Nc1ccc(S(=O)(=O)Nc2ncccn2)cc1	0.4	.	.	.	25.7	0.2%
15	COc1ccc(OC)c(/C=C/C(=O)c2ccc3c(c2)OCCO3)c1	-0.3	-20.7	4.7	-4.0	15.0	-1.5%
16	CC(C)(C)OC(=O)N(CCc1ccccc1)Cc1ccc(OCc2cccc(NC(=O)C3CC3)c2)cc1	-0.9	-7.1	-26.2	-1.1	2.6	3.3%
17	Cc1cc(NC(=O)c2cccs2)n(-c2nc3ccccc3[nH]2)n1	2.3	9.0	-14.4	0.8	-3.4	0.8%
18	O=C(NCc1ccccc1)C(c1ccco1)N(C(=O)c1ccccn1)c1ccc(F)cc1 (configuration not stated)	-0.3	-3.0	10.4	-1.2	-10.8	0.7%
19	COC(=O)c1ccccc1NC(=O)COC(=O)C1CCCCC1	-0.2	4.2	9.9	-4.3	2.7	5.2%
20	Cc1ccccc1C(=O)NNC1=NCCC1	0.8	0.2	4.1	0.8	20.4	3.3%[38.3 µM]
21	Cc1ccc(-n2ncc(C(=O)Nc3ccc(Cl)cc3)c2C2CCNCC2)cc1C	0.7	-13.3	0.1	-6.1	-5.5	-3.1%
22	COc1ccc(-c2cccc(N3CCN(c4ccccn4)CC3)n2)cc1OC	-1.3	-2.3	-13.4	-3.7	.	4.1%
23	COc1cccc(NS(=O)(=O)c2ccc3c(c2)NC(=O)CC(=O)N3)c1	0.0	-2.9	3.2	-3.9	4.8	1.9%
24	Cc1ccc(CNC(=O)CCS(=O)(=O)c2cc3c(cc2Cl)NC(=O)CO3)o1	0.9	-2.0	-6.3	-2.8	20.7	-3.6%
25	CCOc1ncccc1C(=O)OCC(=O)Nc1ccc(C(C)C)cc1	-0.5	-5.7	2.1	-4.6	-5.6	3.0%
26	COc1ccc(S(=O)(=O)N(C)C)cc1NC(=O)COC(=O)Cn1cnc2ccccc2c1=O	2.8	-1.7	2.4	0.2	-2.7	0.1%
27	CC1CCN(c2ccccc2NC(=O)c2ccc(Br)o2)CC1	3.1	-8.5	-6.1	-0.9	2.1	?
28	CN1CCN(c2ccc(CNC(=O)c3cccc4c(-c5ccc(F)c(F)c5)coc34)cc2)CC1	0.1	-11.1	?	2.5	.	-1.2%
29	Cn1c(C(=O)OC(C(=O)NCC2CCCO2)c2cccnc2)cc2sccc21 (configuration not stated)	-0.5	-69.5	2.4	-7.7	17.4	-0.4%
30	COc1ccc(-c2nnc(NC(=O)c3cccs3)s2)c(OC)c1	-0.6	-4.1	-23.9	-1.5	-2.4	26.0%
31	C[C@H]1CN([C@@H](C)CO)C(=O)c2cccc(NC(=O)c3cnccn3)c2O[C@@H]1CN(C)S(=O)(=O)c1ccc(F)cc1	0.2	-14.7	2.4	0.9	-14.5	-0.5%
32	O=C1SCCC1NS(=O)(=O)c1ccccc1[N+](=O)[O-] (configuration not stated)	0.9	7.4	17.8	4.0	14.3	-0.6%
33	COc1ccc(OC)c(CNC(=O)c2cc(-c3ccc(Cl)s3)nc3ccccc23)c1	-0.3	.	.	.	?	0.2%
34	COc1cccc(CNC(=O)c2ccc3c(c2)c(C)c(C)n3Cc2ccccc2)c1OC	1.2	.	.	.	20.2	2.5%
35	COc1ccc(C(C(=O)NC(C)(C)C)N(C(=O)CCC(=O)Nc2cc(C)on2)c2c(C)cccc2C)cc1 (configuration not stated)	-0.7	-1.6	-4.3	-0.1	20.1	4.0%
36	COc1ccccc1/C=C/C(=O)OCC(=O)N1CCN(S(=O)(=O)c2ccc(C)cc2C)CC1	2.9	-12.9	-18.4	-0.1	-29.0	-0.3%
37	CCSc1ccc([C@@H]2[C@H]3C(=O)N(CC)C(=O)[C@H]3[C@]3(C(=O)OC)CCCCN23)cc1	1.3	-11.1	-8.4	-1.5	48.2	4.5%
38	O=C(Nc1ccc(Cl)c(Cl)c1)N1N=CCC1c1ccccc1 (configuration not stated)	2.8	-11.0	6.5	-2.3	11.2	9.7%
39	COc1cc(/C=N\NC(=O)c2ccc(-c3ccccc3)cc2)ccc1OCC(N)=O	-0.9	-16.9	7.0	1.7	-2.5	3.2%
40	COc1cc(NC(=O)c2ccc(F)cc2)c(OC)cc1NC(=O)CN1CCOCC1	2.0	7.3	-1.4	2.7	18.4	0.5%
41	COc1ccccc1NS(=O)(=O)c1ccc(C)c(C(=O)NCC2CCCO2)c1 (configuration not stated)	1.2	0.5	8.2	-3.1	8.2	-0.4%
42	Cc1ccc2nc3n(c(=O)c2c1)-c1cc2ccccc2cc1C(=O)NC3Cc1ccccc1 (configuration not stated)	-0.1	0.3	-7.3	-0.4	9.1	5.9%
43	Cc1ccc(CN2CCC[C@]3(N[C@H](c4ccc(C(F)(F)F)cc4)[C@@H]4C(=O)N(C)C(=O)[C@@H]43)C2=O)cc1	-0.3	-4.4	5.3	-7.7	2.9	0.9%
44	COC(=O)c1sccc1NC(=O)CSc1ccccc1NS(=O)(=O)c1ccccc1Cl	6.5	3.0	-4.6	1.2	27.7	-2.0%
45	Cc1ccc(-c2nc3ccccc3[nH]2)cc1NC(=O)c1ccc2c(c1)OCO2	0.9	-6.9	-9.5	-1.0	-21.0	9.8%[38.3 µM]
46	COc1cccc(CNc2nc3cc(-c4ccc(C)cc4)sc3c(=O)n2C)c1OC	-0.4	1.9	2.5	6.8	.	7.5%
47	Cc1ccc(S(=O)(=O)N(C)C)cc1NC(=O)COC(=O)/C=C/c1ccc(F)cc1	-0.2	-10.4	0.2	-4.3	1.4	1.6%
48	COc1cc(/C=C2\CCC(C)C3=C(c4cc(OC)c(OC)c(OC)c4)C(C#N)=C(N)OC32)cc(OC)c1OC (configuration not stated)	14.6	-7.7	-7.6	0.5	-3.1	-0.5%
49	COc1cc(C(=O)Nc2ccc(OCC(=O)O)cc2)cc(OC)c1OC	0.3	-8.7	0.8	-0.8	10.3	0.0%
50	O=C(O)c1cccc(-n2cccc2/C=C/[N+](=O)[O-])c1	0.3	-7.8	?	2.7	-1.7	3.2%
51	Cc1cc(C)c(-c2csc(NC(=O)c3cc([N+](=O)[O-])ccc3N3CCOCC3)n2)c(C)c1	1.3	-8.0	-12.4	-2.9	3.5	1.3%
52	CCOC(=O)c1cc2c(OC)ccc(OC)c2n1CC(=O)c1ccccc1	1.1	-2.8	-2.4	-0.5	47.7	0.9%
53	CNC(=O)COC(=O)[C@@H](Nc1ccc(S(=O)(=O)N2CCOCC2)cc1[N+](=O)[O-])C(C)C	-0.2	-0.6	2.0	1.7	-24.0	1.1%
54	O=C(NCCCN1CCN(c2ccccc2)CC1)c1nnc(Cc2c(F)cccc2Cl)o1	0.7	.	.	.	-9.3	0.9%
55	CCCc1ccc2oc(C(=O)N3CCN(CC(=O)NC(C)C)CC3)c(C)c2c1	1.0	-4.8	-7.6	-2.1	20.6	1.1%
56	Clc1ccsc1-c1csc(-c2cccnc2)n1	2.7	1.9	16.7	-2.2	56.9	0.7%
57	O=C(NCc1nc2ccccc2[nH]1)C1=C[C@H](C2CCCCC2)C[C@H](OCc2ccc(CO)cc2)O1	-0.6	-14.0	-2.0	-1.5	14.9	-1.1%
58	O=C1CC(c2ccccc2)CN1C(=O)c1ccccc1 (configuration not stated)	0.5	-11.4	2.5	-4.3	-3.8	0.9%
59	COc1ccc(N(CC(=O)NC2CCCCC2)C(=O)CNC(=O)c2cccs2)cc1OC	-0.3	-5.6	-0.6	6.6	-10.4	0.1%
60	O=C(CSCc1ccc(C(=O)O)cc1)Nc1ccc2ccccc2c1	.	-4.7	-2.5	-1.9	.	1.7%

# (list continues)
entry	Structure	TRPML1 ag	D2 PAM	Six1-Eya2 inh	D2 agonist	TRPML1 inh	PINK1 expr mod
61	O=S(=O)(c1cnccc1N1CCN(/N=C/c2ccc(Cl)cc2)CC1)N1CCCCC1	0.9	-18.3	-1.2	0.4	2.1	-0.7%
62	Cc1[nH]c2ccccc2c1C(c1ccccc1)c1cccs1 (configuration not stated)	1.1	.	.	.	-19.3	2.0%
63	Nc1c(Br)cc(Br)c2c1-c1ccc([N+](=O)[O-])cc1C2	0.0	-7.1	0.9	5.1	-8.5	-5.6%
64	CC(C)CCN1CCN(Cc2nc(-c3ccc(F)cc3)cs2)CC1CCO (configuration not stated)	-0.2	-12.3	1.9	-2.3	62.0	2.9%
65	O=C(ON=C1CCN(S(=O)(=O)c2ccccc2)CC1)c1ccc(Cl)cc1	1.6	-14.1	2.2	0.6	-2.0	0.1%
66	O=C(NCCC(=O)N1CCC2(CC1)NCCc1[nH]cnc12)c1cccc(Br)c1	-0.4	0.6	0.5	-0.6	7.6	-0.8%
67	COc1ccc(OC)c(-c2nnc(SCC(=O)NC3CCCCC3)o2)c1	1.0	-2.7	-14.0	-0.3	-14.1	2.0%
